Vaccinia inh: blocks a specific stage of Vaccinia orthopoxvirus infection | activity change (mCherry), % (test concentration not listed) | Vaccinia-infected cells, mCherry/Venus stage reporter fluorescence; hits give low values; some inactives read as strong as hits | AID 1053133 | 89,000 tested, 0.01% active;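 active = mCherry past -33% and 40 or more points under the early reporter, replicates agreeing; inconclusive = past -33% without that gap or agreement; tested in A549 cells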;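 also: scaled between vehicle wells and reference inhibitor wells; 23 nL library stock went into each well; one replicate is shown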
Vaccinia inh Venus: recorded beside Vaccinia inh, whose call it bears; activity change (Venus), %; measured here: Venus reporter, other viral stage;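 negative = less Venus signal; first of two replicates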
The depositor's hits bear a star; ? = inconclusive; nt = not tested or not shown; & = joins results of further samples. The list is partial. The share of hits here may be higher or lower than overall.

Compound,Vaccinia inh,Vaccinia inh Venus
C[C@@H]1CN([C@@H](C)CO)C(=O)c2cc(NS(=O)(=O)c3ccc(Cl)cc3)ccc2O[C@@H](C)CCCCO[C@H]1CN(C)Cc1ccc2c(c1)OCO2,?,nt
Cc1ccc(S(=O)(=O)Nc2ccc3c(c2)C(=O)N([C@H](C)CO)C[C@H](C)[C@@H](CN(C)S(=O)(=O)c2cccs2)OCCCC[C@@H](C)O3)cc1,1,-6
C[C@H]1CN([C@@H](C)CO)C(=O)c2cc(N(C)C)ccc2O[C@@H]1CN(C)Cc1ccc(C(F)(F)F)cc1,-12,-12
COc1ccc(C(=O)Nc2ccc3c(c2)OC[C@H](C)NC[C@@H](C)[C@H](OC)CN(C)C3=O)cc1,-8,-5
O=C(C[C@@H]1CC[C@@H]2[C@H](COC[C@@H](O)CN2S(=O)(=O)c2ccc(F)cc2)O1)N[C@H]1CCN(Cc2ccccc2)C1,-5,-7
CCCC#Cc1cnc2c(c1)C(=O)N([C@H](C)CO)C[C@@H](C)[C@H](CN(C)C(=O)c1cccc(F)c1)O2,30,23
C[C@H](O)C#Cc1ccc([C@H]2[C@H](CO)N3CCCCN(C(=O)c4cccc(F)c4)C[C@@H]23)cc1,21,8
Cc1ccc(S(=O)(=O)Nc2ccc3c(c2)C(=O)N([C@H](C)CO)C[C@@H](C)[C@@H](CN(C)Cc2ccc(C(=O)O)cc2)OCCCC[C@@H](C)O3)cc1,22,13
CN(C)C(=O)c1cc2c(c(-c3cccc(C4=CCCC4)c3)n1)[C@H](CCO)N([S@@](=O)C(C)(C)C)C2,-1,25
O=C(C[C@H]1CC[C@@H]2[C@H](COC[C@H](O)CN2C(=O)Nc2ccc(F)cc2)O1)NC1Cc2ccccc2C1,-2,-10
C[C@H]1CN([C@@H](C)CO)C(=O)c2cc(-c3ccncc3)cnc2O[C@@H]1CN(C)S(=O)(=O)c1ccc(F)cc1,-10,-6
CO[C@H]1CN(C)C(=O)c2ccc(NC(=O)Nc3cc(F)ccc3F)cc2OC[C@@H](C)N(C)C[C@@H]1C,0,6
C[C@H](CO)N1C[C@H](C)[C@H](CN(C)Cc2ccccc2)Oc2c(NC(=O)c3cnccn3)cccc2C1=O,4,4
COc1ccc(NC(=O)N2CC(=O)N3[C@H](C2)[C@@H](c2ccc(-c4ccc(C)cc4)cc2)[C@@H]3CO)cc1,-23,-28
Cc1noc(C)c1S(=O)(=O)Nc1ccc2c(c1)C(=O)N([C@@H](C)CO)C[C@H](C)[C@@H](CN(C)S(=O)(=O)c1ccccc1)O2,5,6
CN1CCN(C(=O)C[C@H]2CC[C@H]3[C@H](COc4ccc(NC(=O)C5CCC5)cc4C(=O)N3C)O2)CC1,6,-4
COc1ccc(CN(C)C[C@H]2Oc3c(NS(=O)(=O)c4ccc(Cl)cc4)cccc3C(=O)N([C@H](C)CO)C[C@@H]2C)cc1,13,8
O=C(Cc1ccccc1)N1C[C@@H]2[C@H](c3ccccc31)[C@H](CO)N2S(=O)(=O)c1ccccc1,-22,-19
CNC[C@H]1Oc2ncc(C#CC3(O)CCCC3)cc2C(=O)N([C@@H](C)CO)C[C@H]1C,1,6
CC(C)OC(=O)N(C)C[C@H]1OCc2cn(nn2)CCCC(=O)N([C@H](C)CO)C[C@H]1C,5,1
C/C=C/c1ccc([C@@H]2[C@@H](CN(C)C(=O)CC)N(C(=O)NC(C)C)[C@H]2CO)cc1,-14,-8
COc1ccc(-c2ccc3n(c2=O)C[C@@H]2[C@@H](CO)[C@H](C(=O)O)[C@H]3N2C(=O)c2ccccc2F)cc1,4,8
Cc1noc(C)c1S(=O)(=O)Nc1ccc2c(c1)C(=O)N([C@H](C)CO)C[C@@H](C)[C@H](CN(C)S(=O)(=O)c1c(C)noc1C)OCCCC[C@@H](C)O2,-27,-25
C[C@H](CO)N1C[C@H](C)[C@H](CN(C)S(=O)(=O)c2cccs2)Oc2ccc(NC(=O)Cc3cn(C)c4ccccc34)cc2C1=O,5,11
C[C@H]1CCCCO[C@H](CN(C)C(=O)Cc2ccccc2)[C@@H](C)CN([C@@H](C)CO)C(=O)c2cc(NS(=O)(=O)c3cccs3)ccc2O1,-20,-15
C[C@@H]1CN([C@H](C)CO)C(=O)Cc2cc(NC(=O)Nc3cccc4ccccc34)ccc2O[C@H]1CN(C)Cc1ccc(C(=O)Nc2ccccc2N)cc1,-7,0
CCCNC(=O)C[C@H]1CC[C@@H]2[C@H](COc3ccc(NC(=O)c4cscn4)cc3C(=O)N2C)O1,13,5
COc1ccc(NC(=O)N[C@H]2CC[C@@H](CCNS(=O)(=O)c3ccccc3F)O[C@@H]2CO)cc1,-7,-21
CO[C@H]1CN(C)C(=O)c2cc(NC(C)=O)ccc2OC[C@H](C)N(C(=O)Cc2ccccn2)C[C@H]1C,3,4
COc1ccc(S(=O)(=O)Nc2ccc3c(c2)C(=O)N([C@@H](C)CO)C[C@H](C)[C@@H](CN(C)CC2CC2)OCCCC[C@H](C)O3)cc1,-7,-10
CNC[C@@H]1Oc2c(NC(=O)c3nc4ccccc4s3)cccc2C(=O)N([C@@H](C)CO)C[C@H]1C,7,3
Cc1noc(C)c1S(=O)(=O)N(C)C[C@H]1Oc2ccc(NC(=O)NC3CCCCC3)cc2CC(=O)N([C@H](C)CO)C[C@@H]1C,21,17
O=C1CCCn2cc(nn2)COCC2CCCN12 (stereo unspecified),8,-3
CCC(=O)N1CC[C@@H]2[C@H](CO)Nc3ccc(C#Cc4ccccc4)cc3[C@@H]21,2,1
O=C(C[C@@H]1C=C[C@@H](NC(=O)C2CCC2)[C@H](CO)O1)NCC1CC1,5,-7
CN(C)C(=O)[C@H]1[C@H](CO)[C@H]2Cn3c(ccc(-c4ccccc4F)c3=O)[C@H]2N1C(=O)c1cnccn1,-6,-4
CO[C@@H]1CN(C)C(=O)c2cc(NC(C)=O)ccc2OC[C@H](C)N(C(=O)c2cccnc2)C[C@H]1C,13,1
Cc1ccc(S(=O)(=O)Nc2ccc3c(c2)CC(=O)N([C@H](C)CO)C[C@H](C)[C@H](CN(C)C(=O)NC2CCCCC2)O3)cc1,-2,3
COc1ccccc1CNC(=O)C[C@@H]1C=C[C@@H](NC(C)=O)[C@@H](CO)O1,1,8
C[C@@H]1CN([C@H](C)CO)C(=O)c2cccc(NC(=O)c3cnccn3)c2O[C@@H]1CN(C)S(C)(=O)=O,13,6
O=C(N[C@@H]1CC[C@@H](CCn2cc(C3(O)CCCC3)nn2)O[C@H]1CO)C1CCOCC1,-4,4
COCC#Cc1ccc2c(c1)O[C@H](CN(C)C(=O)COC)[C@H](C)CN([C@H](C)CO)S2(=O)=O,18,12
N#Cc1cccc(-c2ccc(C3[C@H]4CNC[C@@H]3N4S(=O)(=O)c3ccc(F)cc3)cc2)c1 (stereo partly specified),10&-8,18&0
C[C@H]1CN([C@@H](C)CO)C(=O)Cc2cc(NS(=O)(=O)c3ccccc3)ccc2O[C@H]1CN(C)Cc1ccc(C(=O)O)cc1,11,8
CCS(=O)(=O)Nc1ccc2c(c1)C(=O)N(C)C[C@@H](OC)[C@@H](C)CN[C@@H](C)CO2,-5,-3
O=C(C[C@H]1C=C[C@H](NC(=O)Cc2cccnc2)[C@H](CO)O1)Nc1ccc(-c2ccccc2)cc1,-7,-7
Cc1ccc(S(=O)(=O)N[C@@H]2CC[C@H](CC(=O)N3CCc4ccccc4C3)O[C@@H]2CO)cc1,?,nt
COc1ccccc1-c1ccc([C@H]2[C@H]3CN(S(=O)(=O)c4cn(C)cn4)CCCCN3[C@H]2CO)cc1,?,nt
C[C@H]1CN([C@@H](C)CO)C(=O)c2cc(C#CC3CCCCC3)cnc2O[C@@H]1CN(C)C(=O)Nc1ccccc1,?,nt
O=C(c1cnccn1)N1CC(=O)N2[C@H](C1)[C@H](c1ccc(-c3ccccc3)cc1)[C@@H]2CO,18,4

Three compounds out of the list, arranged by formula weight, rising:
Compound,Vaccinia inh,Vaccinia inh Venus
N#Cc1cccc(-c2ccc(C3[C@H]4CNC[C@@H]3N4S(=O)(=O)c3ccc(F)cc3)cc2)c1 (stereo partly specified),10&-8,18&0
CCCNC(=O)C[C@H]1CC[C@@H]2[C@H](COc3ccc(NC(=O)c4cscn4)cc3C(=O)N2C)O1,13,5
C[C@H]1CN([C@@H](C)CO)C(=O)Cc2cc(NS(=O)(=O)c3ccccc3)ccc2O[C@H]1CN(C)Cc1ccc(C(=O)O)cc1,11,8

(listing goes on)
Compound,Vaccinia inh,Vaccinia inh Venus
CO[C@@H]1CN(C)C(=O)c2cc(NC(=O)C3CCOCC3)ccc2OC[C@@H](C)NC[C@H]1C,7,18
CCC(=O)N1[C@@H]2Cn3c(ccc(C4=CCCCC4)c3=O)[C@H]1[C@@H](C(=O)N[C@@H](C)c1ccccc1)[C@@H]2CO,5,-9
O=C(N[C@@H]1C=C[C@H](CC(=O)N2CCN(c3ccccc3)CC2)O[C@H]1CO)c1ccccc1,1,5
CC(=O)N1CC(=O)N2[C@H](CO)[C@@H](c3ccc(-c4ccc(C)cc4)cc3)[C@@H]2C1,11,-14
COc1ccc(S(=O)(=O)Nc2ccc3c(c2)C(=O)N([C@H](C)CO)C[C@@H](C)[C@@H](CN(C)Cc2ccc4c(c2)OCO4)O3)cc1,-13,-10
CO[C@H]1CN(C)C(=O)c2cc(NC(C)=O)ccc2OC[C@H](C)N(Cc2cncnc2)C[C@H]1C,0,9
C[C@H]1CN([C@@H](C)CO)C(=O)Cc2cc(NC(=O)Nc3ccccc3)ccc2O[C@H]1CN(C)S(=O)(=O)c1ccc(F)cc1,?,nt
Cc1cccc(CN(C)C[C@H]2OCc3cnnn3CCCC(=O)N([C@H](C)CO)C[C@H]2C)c1,10,1
C/C=C/c1cnc2c(c1)C(=O)N([C@@H](C)CO)C[C@@H](C)[C@@H](CN(C)C(=O)Nc1ccc(C(F)(F)F)cc1)O2,-25,-33
C[C@H]1CN([C@@H](C)CO)C(=O)Cc2cc(NC(=O)CCCCCC(=O)Nc3ccccc3N)ccc2O[C@H]1CN(C)C,16,0
COCC(=O)Nc1ccc2c(c1)[C@@H]1C[C@H](CC(=O)NCCN3CCCCC3)O[C@@H](CO)[C@@H]1O2,1,-7
CCC(=O)Nc1ccc2c(c1)OC[C@H](C)N(Cc1ccccc1C(=O)O)C[C@@H](C)[C@H](OC)CN(C)C2=O,10,14
C[C@@H](NC(=O)C[C@@H]1CC[C@H]2[C@@H](COC[C@@H](O)CN2C(=O)Nc2cc(Cl)cc(Cl)c2)O1)c1ccccc1,-14,-12
CC(C)(C)[S@](=O)N1Cc2cc(C(=O)NCCc3ccncc3)nc(-c3cccc(-c4cccnc4)c3)c2[C@@H]1CCO,17,19
C[C@H](CO)N1C[C@H](C)[C@H](CN(C)Cc2ccc3c(c2)OCO3)Oc2ccc(NC(=O)Nc3ccc(C(F)(F)F)cc3)cc2C1=O,-13,-12
CCC(=O)N1CCCCN2[C@H](C1)[C@H](c1ccc(C#Cc3ccccc3F)cc1)[C@@H]2CO,?,nt
O=C([C@@H]1[C@@H](CO)[C@@H]2Cn3c(ccc(C4=CCCC4)c3=O)[C@H]1N2C(=O)c1ccccc1)N1CCOCC1,8,7
O=C(C[C@H]1CC[C@@H]2[C@H](COC[C@@H](O)CN2Cc2cc(F)ccc2F)O1)NCc1ccc(Cl)cc1,-24,-10
CN(C)CC(=O)N[C@H]1CC[C@H](CCNC(=O)C2CCCCC2)O[C@@H]1CO,-5,1
O=S(=O)(c1ccccc1F)N1CC[C@H]2[C@H](CO)Nc3ccc(-c4ccccc4)cc3[C@H]21,-19,-15
O=C(C[C@@H]1C[C@H]2c3cc(NC(=O)c4ccc5c(c4)OCO5)ccc3O[C@H]2[C@@H](CO)O1)NCc1cccc(F)c1,16,8
O=C(c1ccccn1)N1CC(=O)N2[C@H](C1)[C@@H](c1ccc(-c3cccc(F)c3)cc1)[C@@H]2CO,5,-8
COCC(=O)N1[C@H](CO)[C@@H](c2ccccc2)[C@@H]1C#N,38,16
C[C@H](CO)N1C[C@H](C)[C@@H](CN(C)C)Oc2c(NC(=O)C3CC3)cccc2C1=O,-2,4
CC(C)COC(=O)N(C)C[C@H]1OCc2ccccc2-c2c(n(C)c3ccccc23)C(=O)N([C@@H](C)CO)C[C@@H]1C,?,nt
C[C@@H]1CN([C@H](C)CO)C(=O)Cc2cc(NC(=O)NC3CCCCC3)ccc2O[C@@H]1CN(C)C(=O)NC1CCCCC1,-1,-8
C[C@@H]1CCCCO[C@@H](CN(C)CC2CC2)[C@@H](C)CN([C@H](C)CO)C(=O)c2cc(NS(=O)(=O)c3cn(C)cn3)ccc2O1,18,12

Nothing new here: an excerpt of the list.
Compound,Vaccinia inh,Vaccinia inh Venus
CO[C@@H]1CN(C)C(=O)c2cc(NC(=O)C3CCOCC3)ccc2OC[C@@H](C)NC[C@H]1C,7,18
CCC(=O)N1[C@@H]2Cn3c(ccc(C4=CCCCC4)c3=O)[C@H]1[C@@H](C(=O)N[C@@H](C)c1ccccc1)[C@@H]2CO,5,-9
O=C(N[C@@H]1C=C[C@H](CC(=O)N2CCN(c3ccccc3)CC2)O[C@H]1CO)c1ccccc1,1,5
CC(=O)N1CC(=O)N2[C@H](CO)[C@@H](c3ccc(-c4ccc(C)cc4)cc3)[C@@H]2C1,11,-14

Screening data as filed in PubChem BioAssay.
